Assay outcomes (PubChem)
UCH37 inh: blocks the human deubiquitinase UCH37. Q9Y5K5. purified proteasome/UCH37, Ub-AMC cleavage fluorescence. inhibition, % (concentration not given with the values). 330,000 tested, 0.33% active;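 active = mean of two replicates above 20%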;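 also: 0% = compound-free wells with enzyme and 100% = wells lacking proteasome; stock transfer was 100 nL into about 20 µL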
Target sequence (Q9Y5K5 whole entry, looked up): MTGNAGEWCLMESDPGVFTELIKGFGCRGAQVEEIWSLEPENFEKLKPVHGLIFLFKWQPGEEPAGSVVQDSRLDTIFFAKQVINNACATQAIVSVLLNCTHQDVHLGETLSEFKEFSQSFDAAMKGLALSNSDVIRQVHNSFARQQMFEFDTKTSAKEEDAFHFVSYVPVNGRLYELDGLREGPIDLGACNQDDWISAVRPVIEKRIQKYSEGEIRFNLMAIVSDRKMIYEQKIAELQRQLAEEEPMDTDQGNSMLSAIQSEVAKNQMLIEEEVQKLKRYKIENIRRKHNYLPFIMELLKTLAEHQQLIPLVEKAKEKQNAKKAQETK
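Material: human UCH37 enzyme supplied as purified proteasome complex / Amount: 0.15 nM proteasome as dispensed / Buffer or medium: pH 7.4 Tris-HCl (50 mM) with ovalbumin, ATP-MgCl2, DTT / Times: preincubation 30 min, reaction 25 min, room temperature / Technique: AMC fluorescence from Ub-AMC cleavage, excitation 355 nm, emission 460 nm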
A1 inh: inhibitors of the anti-apoptotic protein A1, read as caspase activation; MEF A1-2A-BIM cells, Caspase-Glo 3/7 luminescence, 3 h; percent of clofoctol response, vehicle zero; caspase activation, % (test concentration not listed); 330,000 tested, 0.066% active; AID 2462;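 active = over half of replicate activation scores above 10%, or exactly half above 10 with the replicate mean above 10; inconclusive = replicate mean below 10 yet half the replicates above 10; inactive = over half of replicates below 10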;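 also: wells of about 30 µL received 50 nL stock; many hits fall short of the cut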
MLL AF4-AF9 inh: MLL-AF4/AF9 protein interaction inhibition; P42568; AlphaScreen, biotin-AF4 peptide binding to FLAG-AF9; inhibition, % at 10 µM; 350,000 tested, 0.47% active; AID 651704;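 active = every replicate reaching a set inhibition limit, whatever the replicate mean, cut at about 25% in these data; inconclusive = mean inhibition reaches that limit but some replicates miss it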;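 also: 0% = plate neutral control median and 100% = total signal loss; the record names both 10 and 1 µM as test concentration; the first replicate is given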
Target sequence (P42568 whole entry, looked up): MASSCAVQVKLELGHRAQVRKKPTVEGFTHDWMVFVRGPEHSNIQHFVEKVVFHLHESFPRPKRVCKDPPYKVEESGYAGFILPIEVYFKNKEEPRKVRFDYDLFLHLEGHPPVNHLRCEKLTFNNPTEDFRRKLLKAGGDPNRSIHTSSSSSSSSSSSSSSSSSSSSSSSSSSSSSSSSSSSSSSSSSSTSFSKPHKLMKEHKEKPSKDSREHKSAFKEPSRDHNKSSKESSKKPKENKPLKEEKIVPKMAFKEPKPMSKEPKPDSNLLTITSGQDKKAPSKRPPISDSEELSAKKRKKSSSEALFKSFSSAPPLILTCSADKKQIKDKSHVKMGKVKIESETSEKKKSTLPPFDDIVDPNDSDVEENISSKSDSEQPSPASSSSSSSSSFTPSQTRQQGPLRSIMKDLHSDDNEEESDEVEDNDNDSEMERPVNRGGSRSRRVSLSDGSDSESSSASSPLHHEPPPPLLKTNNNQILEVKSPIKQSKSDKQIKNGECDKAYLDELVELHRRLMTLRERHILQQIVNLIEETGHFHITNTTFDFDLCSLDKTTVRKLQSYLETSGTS
T cruzi inh: blocks replication of Trypanosoma cruzi. AID 1885. 300,000 tested, 1.4% active. T. cruzi beta-gal in NIH3T3, luminescence, 90 h. inhibition, % (test concentration not listed);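 active = mean inhibition across valid replicates above about 55%, limit read from the data; inconclusive = mean below that limit but half or more replicates reach it; inactive = mean below it, under half of replicates reach it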;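 also: signal also drops with host cell toxicity which is not excluded here; 0% = plate median of DMSO wells and 100% = zero luminescence signal; higher percent means less beta-gal luminescence so fewer parasites; stock transfer was 50 nL into about 50 µL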
FGF22 binding: shifts melting point of recombinant human FGF22; 340,000 tested, 1.5% active; AID 651658; Q9HCT0; calls only at 9.99 µM; recombinant FGF22 thermal shift, SYPRO orange fluorescence; percent of sucrose octasulfate shift, DMSO zero;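 active = melting point raised past a set limit in the mean and every replicate; inconclusive = no clear call; three in four hits are not shown here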
Target sequence (Q9HCT0 whole entry, looked up): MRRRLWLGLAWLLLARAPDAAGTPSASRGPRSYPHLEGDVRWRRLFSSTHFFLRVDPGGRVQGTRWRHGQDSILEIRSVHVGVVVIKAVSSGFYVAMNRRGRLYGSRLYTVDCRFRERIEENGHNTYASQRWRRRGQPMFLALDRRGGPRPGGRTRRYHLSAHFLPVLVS
E coli growth: inhibitors of Escherichia coli growth | OD600, 23 h; stronger effect = lower value | OD600 absorbance (test concentration not listed) | 330,000 tested, 0.21% active | AID 1053175;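 active = OD600 absorbance below the run mean of sample wells minus 3.6 SD, in any replicate, cut at about 0.56 in these data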;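 also: stock transfer was 300 nL into about 60 µL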
Beta apoptosis: blocks beta cell apoptosis; INS-1E cytokine-induced death, ATP luminescence, 48 h; percent of positive-control rescue, neutral wells zero; protection from apoptosis, % (no concentration beside the values); 300,000 tested, 0.8% active;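 active = all replicates at 75% or more, or half of them and the mean; inconclusive = half reach 75% but not the mean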;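 also: 0% = cytokine-treated negative control wells and 100% = positive control rescue; higher means more ATP so stronger rescue from cytokine killing; wells of about 40 µL received 100 nL stock; the first replicate is given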
Ecoli rRNA inh: inhibitors of bacterial rRNA selective over humanized ribosomes. E. coli WT GFP vs humanized-ribosome RFP mutants, fluorescence, 24 h; stronger effect = lower value; DMSO median 0, no signal -100. GFP signal change (wild-type ribosome), % (concentration not given with the values). 350,000 tested, 1.6% active. AID 720706;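 active = significant combined selectivity score with lowered wild-type GFP, culture density cut under 30%, mutant RFP and density less affected; inactive = any of these conditions unmet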; also: one replicate is shown; some compounds called inactive have numbers as strong as hits
Ecoli rRNA inh OD600: also measured in Ecoli rRNA inh; calls as there; OD600 change, %; measured here: OD600 growth;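 optical density of the mix in the first replicate; 0 = DMSO median and -100 = no signal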
Ecoli rRNA inh RFP: second read-out of Ecoli rRNA inh, no call of its own (marks repeat the call); RFP signal change, %; measured here: RFP humanized mutant strains;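 first replicate; 0 = DMSO median and -100 = no signal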
* hit, by the source's call; i = inactive; u = inconclusive; x = no result given; & = joins results of further samples. An excerpt. The share of hits here may be higher or lower than overall.

Each structure is followed by: MLL AF4-AF9 inh, Beta apoptosis, Ecoli rRNA inh, Ecoli rRNA inh RFP, A1 inh, Ecoli rRNA inh OD600, E coli growth, T cruzi inh, UCH37 inh, FGF22 binding
- CC(CNC(=O)CCc1nnc(CCC2CCCCC2)o1)c1ccccc1 (centres undefined)
 : 1.2, 1.6, -48.2, -6.0, 1.2, -71.6, 0.641, 6.9, 6.9, i
- O=C(c1ccc(Br)o1)N1CCN(c2ncccn2)CC1
 : x, 1.3, x, x, 0.5, x, 0.677, -4.0, 3.0, x
- O=C(CSc1ncn[nH]1)Nc1ccc(OCc2ccccc2)cc1
 : -2.2, -2.5, -5.2, 1.7, -3.9, 0.6, 0.664, 31.3, 2.1, i
- COc1cccc(S(=O)(=O)NCC(=O)Nc2ccc(C(C)(C)C)cc2)c1
 : -4.6, -5.8, -16.9, -3.7, 0.0, -13.8, 0.663, -0.8, 2.5, i
- CC(C(=O)Nc1ccc2c(c1)OCO2)N(C)CC(=O)Nc1ccccc1Cl (centres undefined)
 : -2.3, 6.2, -3.4, -2.1, -0.4, -3.1, 0.709, x, 0.3, i
- COc1cc(NC(=O)c2ccccc2)c(OC)cc1NC(=O)Cc1cccs1
 : 4.7, 2.9, -20.4, -3.1, -0.4, -19.8, 0.633, -0.6, 3.1, i
- CCOc1cc(NC(=O)c2ccco2)c(OCC)cc1NC(=O)COc1ccccc1C
 : x, 3.2, x, x, -0.1, x, 0.717, 11.9, -111.1, x
- CCOc1ccc(NC(=O)Cn2c(=O)n(CCCC(=O)NC3CCN(Cc4ccccc4)CC3)c(=O)c3ccccc32)cc1
 : 0.8, 0.6, -4.6, -5.2, 0.1, 0.6, 0.653, 19.1, 3.4, i
- CCOc1ccc(N2CC(C(=O)NC(C)C)CC2=O)cc1 (centres undefined)
 : x, -8.3, x, x, 0.2, x, 0.723, -2.6, 1.1, x
- CN=C1S/C(=C\c2cccc(Cl)c2Cl)C(=O)N1C
 : 6.7, -10.4, -2.4, -0.3, -4.0, 10.4, 0.683, 4.9, 9.3, i
- COc1ccc(OCc2nnc(SCC(=O)N3CCCc4ccccc43)n2-c2ccc(C)cc2)cc1
 : x, x, x, x, -1.1, x, 0.647, 33.4, 1.4, x
- COC(CNS(=O)(=O)c1ccc(S(=O)(=O)NC2CC2)cc1)OC
 : 0.8, 2.0, 5.9, -2.6, 0.2, 9.4, 0.693, -4.1, -1.8, i
- Cn1c2c(c(=O)n(C)c1=O)C(c1ccc(Cl)cc1)C(C#N)=C(N)O2 (centres undefined)
 : -14.4, -18.1, 3.9, -1.1, 0.4, 0.2, 0.729, -12.0, 4.3, i
- CC(=O)C[C@H]1c2cc(C(F)(F)F)ccc2S(=O)(=O)N1C1CCCC1
 : -2.5, -6.1, -2.2, -3.2, 0.8, -0.5, x, 10.0, 0.3, i
- O=C(N/N=C/c1ccc([N+](=O)[O-])o1)C(O)c1ccccc1 (centres undefined)
 : 0.3, x, -44.4, -5.9, 0.3, -13.2, x, 75.8*, x, i
- O=C(O/N=C1\CCCc2ccccc21)c1cccs1
 : 0.2, x, 7.2, -0.6, -1.1, 4.9, x, -6.8, x, x
- OC(CCCN1CCCCC1)(c1ccccc1)c1ccccc1
 : -4.6, -7.1, x, x, -0.1, x, 0.718, 0.9, 0.4, i
- COc1ccc(CCC(=O)NCc2ccc3c(c2)OCO3)cc1
 : 0.7, -1.5, 2.5, -3.3, -0.2, 6.4, 0.666, -6.0, 1.7, i
- O=C(CCS(=O)(=O)Cc1ccccc1)Nc1nc2c(s1)CCCC2
 : x, -11.3, x, x, 0.3, x, 0.683, -5.8, 1.8, x
- COCCCNC(=O)CCc1nnc(Cc2ccc(-c3ccccc3)cc2)o1
 : 1.2, -4.2, -4.7, -1.8, u, -6.3, 0.695, -8.4, -0.6, i
- O=C(CCN1C(=O)/C(=C/c2ccc(Cl)cc2)SC1=S)Nc1cccc(C(=O)O)c1
 : -6.0, -0.4, 7.6, 2.7, 0.0, 3.3, 0.631, 2.2, 7.2, i
- COCCCNc1nc2c(c(=O)n(Cc3ccc(Cl)cc3)c(=O)n2C)n1C
 : -16.6, x, 1.2, -2.0, 0.0, -0.1, 0.705, 1.2, 6.1, i
- COc1ccccc1NS(=O)(=O)c1cc(NC(=O)CNC(=O)c2cc(C)cc(C)c2)ccc1C
 : x, 5.0, x, x, 0.4, x, 0.707, 2.2, 1.1, x
- COc1ccc(C)cc1NC(=O)Nc1ccc(C(=O)N2CCCC2)cc1
 : 3.9, 12.3, -6.8, 6.6, -7.4, -9.6, 0.685, -5.2, 0.8, i
- COc1ccc(Cc2nnc(NC(=O)c3ccc(C)cc3)s2)cc1OC
 : -2.7, 33.0, 2.0, 0.3, 0.5, 10.3, 0.689, -22.3, 1.7, i
- O=C(COC(=O)c1cccs1)NCc1cccs1
 : -4.9, 2.8, 4.7, -0.5, -0.6, 10.8, 0.644, -7.4, 0.0, i
- COC(=O)c1c(NC(C)=O)sc(C(=O)Nc2ccccc2F)c1C
 : -2.3, -1.9, 19.1, -0.3, -0.9, 10.1, 0.717, x, 1.9, x
- CCN(C(C)=O)c1nc(CCl)cs1
 : -0.6, -21.6, 1.2, -0.4, 0.1, -1.5, 0.693, -3.9, 2.9, i
- Cc1ccc(-c2csc3ncnc(SCC(N)=O)c23)cc1
 : -0.4, -3.7, -31.2, -8.4, 0.0, -46.4, 0.693, -2.9, 2.3, x
- O=C(CSC(=S)N1CCCC1)Nc1ncc(Cl)cc1Cl
 : 0.1, -3.8, 6.0, -0.2, 1.0, 16.4, 0.616, 2.3, 0.6, i
- O=c1c2ccccc2nc(SCc2ccc([N+](=O)[O-])cc2)n1CCCO
 : -3.8, -4.8, 8.6, 0.4, 0.2, 19.2, 0.689, 19.4, 2.4, i
- CC(=O)c1cc2c(cc1NC(=O)CSc1nc3ccccc3[nH]1)OCO2
 : x, 0.6, x, x, 0.4, x, x, 3.3, -141.7, x
- CCOc1ccc(NC(=O)c2ccccc2NC(=O)CN2CCN(C(C)=O)CC2)cc1
 : x, 0.7, x, x, 0.0, x, 0.7, -6.2, -0.6, x
- CC(C)n1c(=S)[nH]c2scc(-c3cccs3)c2c1=O
 : 0.6, 1.3, -53.5, -27.8, -1.0, -75.3, 0.645, 3.0, 0.5, i
- Cc1noc(C)c1NC(=O)N(C)C[C@H]1Oc2ccc(NC(=O)CCN3CCOCC3)cc2C(=O)N([C@H](C)CO)C[C@@H]1C
 : -2.3&1.1, -5.7, 4.1&10.4, 1.0&-2.3, 1.6, 23.9&12.3, x, x, 0.6, i
- O=C1NC(=Nc2ccccc2Br)SC1(CO)CO
 : -13.0, x, 4.7, -1.0, -0.1, 6.8, 0.715, -4.3, -1.8, i
- CC(=O)N1CCC(N(CCN2CCOCC2)C(=S)Nc2ccc(C)cc2)CC1
 : 1.4, -5.3, 9.5, -2.0, 0.7, 3.5, 0.642, 1.3, 2.0, i
- CCCC(=O)OC1CC(C)N(C(=O)c2ccccc2)c2ccc(C)cc21 (centres undefined)
 : x, -2.1, x, x, -0.4, x, 0.784, 8.3, 1.2, x
- COc1cccc(CN2C(=O)CCC2(C)C(=O)NC2CCCC2)c1 (centres undefined)
 : x, x, x, x, 0.8, x, 0.714, -0.1, 0.1, x
- CCOc1ccc(C(=O)OCCCN(C)C)cc1
 : x, x, x, x, -0.1, x, 0.657, u, 2.1, x
- Cc1ccc(S(=O)(=O)N2CCOCC2)cc1NC(=O)CSc1nnnn1C
 : -3.8, -3.7, 9.8, -0.2, -0.3, 9.1, 0.678, 2.4, -1.7, i
- O=C(CCNC(=O)c1ccc(Br)cc1)Nc1nc2ccccc2[nH]1
 : -0.4, x, 8.6, 0.4, x, 7.1, 0.71, x, 1.2, i
- O=C(CN1CCN(c2ccccn2)CC1)Nc1cccc(S(=O)(=O)N2CCOCC2)c1
 : x, -2.8, 23.9, 2.8, 0.3, 5.8, 0.661, -14.4, 1.6, i
- COc1ccc(/C=N/NC(=O)c2cccnc2)cc1Cn1nc([N+](=O)[O-])c(Br)c1C
 : 3.7, 2.1, 12.3, 1.9, 1.5, 18.4, x, 16.9, x, i
- CC1CN(CCOc2ccc(F)cc2)CC(C)O1 (centres undefined)
 : -1.6, x, 8.7, 2.0, 1.0, 4.7, 0.711, -3.6, 1.5, i
- COc1ccccc1C=NN=C(N)C(N)=NN=Cc1ccccc1OC
 : -5.6, x, 2.6, 1.3, x, 15.7, 0.655, x, 0.3, i
- Cc1cc(=O)[nH]c(N/N=C/c2ccc(-c3ccc([N+](=O)[O-])cc3)o2)n1
 : 4.4, 3.7, 5.4, -2.1, -0.9, 14.6, x, -3.6, x, i
- O=C(CNC(c1ccccc1)c1ccccc1)Nc1c(F)cccc1F
 : x, -1.7, x, x, -0.3, x, 0.661, 5.8, 2.1, x
- N#CC1=C(N)OC2=C(C(=O)CC(c3ccccc3)C2)C1c1ccc2c(c1)OCO2 (centres undefined)
 : 4.8, -6.0, x, x, 0.9, x, 0.693, -11.7, 4.7, i
- Nc1nn(-c2ccccc2)nc1C(=O)OCc1ccccc1
 : 0.7, -10.5, -7.2, -0.1, -0.6, -12.4, 0.657, -6.7, -108.7, i
- COc1cc(SC)ccc1C(=O)OCC(=O)NC(=O)NC(C)C
 : -2.7, -1.8, 14.2, 0.8, -0.2, 9.1, 0.713, -0.3, 3.0, i
- COc1ccc2c(c1)C(C)=CC(C)(C)N2C(=O)C(C)N1C(=O)c2ccccc2C1=O (centres undefined)
 : x, x, x, x, 0.6, x, 0.631, -2.6, 3.4, x

Sorted by molecular weight (smallest number first): 4 of the compounds above.
Each structure is followed by: MLL AF4-AF9 inh, Beta apoptosis, Ecoli rRNA inh, Ecoli rRNA inh RFP, A1 inh, Ecoli rRNA inh OD600, E coli growth, T cruzi inh, UCH37 inh, FGF22 binding
- Cc1cc(=O)[nH]c(N/N=C/c2ccc(-c3ccc([N+](=O)[O-])cc3)o2)n1
 : 4.4, 3.7, 5.4, -2.1, -0.9, 14.6, x, -3.6, x, i
- O=C(CNC(c1ccccc1)c1ccccc1)Nc1c(F)cccc1F
 : x, -1.7, x, x, -0.3, x, 0.661, 5.8, 2.1, x
- N#CC1=C(N)OC2=C(C(=O)CC(c3ccccc3)C2)C1c1ccc2c(c1)OCO2 (centres undefined)
 : 4.8, -6.0, x, x, 0.9, x, 0.693, -11.7, 4.7, i
- COc1ccc2c(c1)C(C)=CC(C)(C)N2C(=O)C(C)N1C(=O)c2ccccc2C1=O (centres undefined)
 : x, x, x, x, 0.6, x, 0.631, -2.6, 3.4, x
